# HPGD inh = inhibitors of human 15-hydroxyprostaglandin dehydrogenase (HPGD); P15428; Potency, µM, for inactives: top-dose activity change, negative = inhibition, usual class: inhibitors; purified HPGD, NADH fluorescence kinetic, PGE2 substrate; hit rate 4.3% among 150,000; active = well fitted inhibition curve with a large enough effect (not every such curve was filed as active); inconclusive = small, poorly fitted or top-dose-only effect, or another doubt; inactive = no such curve, though single readings can be large or run the other way;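 note: top concentration of the series not given in the record; plate controls included wells without enzyme; inactives centre near -10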
# Target sequence (P15428 whole entry, looked up): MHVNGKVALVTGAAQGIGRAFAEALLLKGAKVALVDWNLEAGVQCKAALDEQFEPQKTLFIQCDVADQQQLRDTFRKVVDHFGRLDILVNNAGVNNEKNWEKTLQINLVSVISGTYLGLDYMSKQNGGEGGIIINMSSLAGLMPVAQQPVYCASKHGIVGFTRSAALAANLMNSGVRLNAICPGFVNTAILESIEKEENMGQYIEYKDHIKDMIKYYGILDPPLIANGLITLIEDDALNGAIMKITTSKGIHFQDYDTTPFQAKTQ
#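 20 nM HPGD preincubated 15 min at room temperature with compound in 50 mM Tris-HCl pH 8, 0.01% Tween 20. Started with 1 mM NAD+ and 30 uM prostaglandin E2; NADH fluorescence (360/450 nm) read 5 times over 30-s intervals, last minus first.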
# The depositor's hits bear a star; ? = inconclusive. % is set by controls: 0 for no effect and ±100 for the full control effect; potency is the fitted concentration of half-maximal effect. Some of the compounds tested (hit frequency here may not be typical).
entry	mol	HPGD inh
1	CCCCc1nc(NCCN2CCOCC2)c(C#N)c2c1COC(C)(C)C2	-17.6%
2	CCN1C(=O)CSc2ccc(C(=O)NCc3ccccc3OC)cc21	-14.9%
3	Cc1nc2ccc(NC(=O)N3CCSCC3)cc2s1	-6.2%
4	CC(=NCc1cccc(Cl)c1)c1nc(-c2ccco2)oc1O	-15.4%
5	CCN1CCN(/C=N/c2nc3c(s2)CCCC3)CC1	-8.7%
6	CS(=O)(=O)N(CC(=O)N1CCc2ccccc2C1)Cc1ccc(Cl)cc1	-11.2%
7	COc1cc(-c2n[nH]c(=S)n2-c2cccc(C(F)(F)F)c2)cc(OC)c1OC	?
8	CCOC(=O)CC(=O)Nc1ccc(C(=O)OCC)cc1	-11.8%
9	CC1CCN(C(=O)c2ccc(NC(=O)C3CCCO3)cc2)CC1 (stereo unspecified)	0.708µM*
10	CCN(CC)c1c2c(c(C#N)c3nc4ccccc4n13)CCC2	-19.1%
11	CCOC(=O)N1CCC(NC(=O)CS(=O)(=O)Cc2nc(-c3cccc(OC)c3)oc2C)CC1	-1.3%
12	COc1ccc(CCN(C)C(=O)CN2C(=O)c3ccccc3S2(=O)=O)cc1OC	-5.3%
13	c1ccc2c(c1)ncn2CCC1CCCCC1	-3.4%
14	Cc1ccc(C2CC2c2n[nH]c(=S)n2-c2cccc(Cl)c2)cc1 (stereo unspecified)	?
15	CCn1nc(C)c(NC(=O)c2cc(Br)ccc2Cl)c1C	-7.5%
16	COC(=O)CSc1snnc1-c1ccc(Cl)c(Cl)c1	-20.4%
17	CC12CCC(=O)N1C(C(=O)OCC(=O)Nc1sccc1C#N)CS2 (stereo unspecified)	-9.2%
18	COC(=O)c1cc(C)sc1NC(=O)C1CC(=O)NN1Cc1ccccc1 (stereo unspecified)	-10.3%
19	Cc1nn(Cc2ccccc2)c(C)c1NC(=O)CSc1nnc(-c2cc(Cl)ccc2O)n1C	28.2µM*
20	CCOC(=O)CSc1nc(N)c(C#N)c(-c2ccc(OCC)cc2)c1C#N	?
21	O=C1CSC(=S)N1N=C1CCCCCC1	-29.1%
22	CN1CCN(/C=N/c2c(C#N)cnn2-c2ccccc2)CC1	0.9%
23	Cc1ccc(CNC(=O)CCS(=O)(=O)c2cccc3nonc23)cc1	4.2%
24	O=C(O)c1ccc(-c2ccc(O)c(F)c2)cc1	-21.1%
25	c1ccc2nc3c(nc2c1)[nH]c1ccccc13	-11.3%
26	Cc1cccc(NS(=O)(=O)c2cccc3nsnc23)c1	-4.5%
27	Cc1nc2ccccc2c(=O)n1/N=C/c1ccc(N(C)C)cc1	-6.2%
28	CSc1cccc(NC(=O)c2c(Cl)cnn2C)c1	-29.2%
29	CCCCn1nnnc1NCc1ccc(N(CC)CC)cc1	1.6%
30	CCOCC(=O)Nc1ccc(S(=O)(=O)Nc2ncccn2)cc1	-13.9%

# Reformatted with each value named: entries from further up
5. CCN1CCN(/C=N/c2nc3c(s2)CCCC3)CC1
  HPGD inh: -8.7%
22. CN1CCN(/C=N/c2c(C#N)cnn2-c2ccccc2)CC1
  HPGD inh: 0.9%
19. Cc1nn(Cc2ccccc2)c(C)c1NC(=O)CSc1nnc(-c2cc(Cl)ccc2O)n1C
  HPGD inh: 28.2µM*
12. COc1ccc(CCN(C)C(=O)CN2C(=O)c3ccccc3S2(=O)=O)cc1OC
  HPGD inh: -5.3%

# New compounds follow
entry	mol	HPGD inh
31	CCCCCn1ccc(=N)cc1	-0.9%
32	Cc1c(C(=O)Nc2ccc3c(c2)OCO3)sc2nc(-c3ccccc3)cn12	0.6%
33	S=C(Nc1ccc(N2CCOCC2)cc1)Nc1ccc2nc(-c3ccco3)c(-c3ccco3)nc2c1	?
34	CCOc1ccc(NC(=O)COc2nsnc2N2CCCCC2)cc1	-7.4%
35	Cn1c(=O)c(S(=O)(=O)C(C)(C)C)c(O)c2ccccc21	-10.0%
36	CCOc1ncccc1C(=O)OCc1ccccc1	-14.1%
37	NCC(=O)NC1(C(=O)O)CCCC1	-2.5%
38	N#Cc1nc(-c2cccc3ccccc23)oc1NCCN1CCOCC1	?
39	O=C(NCc1ccc(Cl)cc1)c1noc2c1CCCC2	-7.8%
40	CC1(C)CC(NC(=O)C(Cl)(Cl)Cl)CC(C)(C)N1	2.5%
41	COc1ccc2c(c1OC)C(=O)N1c3cccc(Cl)c3C(=O)OC21 (stereo unspecified)	-8.0%
42	CCOC(=O)N1CCN(C(=O)c2ccc(CNS(=O)(=O)c3ccc(OC)cc3)cc2)CC1	-9.2%
43	O=C(CC1CCCCC1)NCCCN1CCOCC1	-14.8%
44	CCc1cccc(C)c1NC(=O)COC(=O)C(NS(=O)(=O)c1ccc(Cl)cc1)C(C)O (stereo unspecified)	-2.4%
45	CN1CCN(C(=O)c2ccc3c(=O)n4c(nc3c2)CCCCC4)CC1	-22.2%
46	CCC(C)NC(=O)c1cn(-c2cccc(C)n2)cn1 (stereo unspecified)	-2.3%
47	c1ccc(CC2CCN(c3nnnn3-c3ccccc3)CC2)cc1	-21.0%
48	CC1N/C(=C\C(=O)c2ccccc2)N(O)C1(C)C (stereo unspecified)	14.1µM*
49	COC(=O)c1c(-c2ccc(C)cc2)csc1NC(=O)C1CC=CCC1C(=O)O (stereo unspecified)	-21.2%
50	COc1ccc(C2C(C(N)=O)=C(C)Nc3nc(-c4ccccc4)nn32)cc1OC (stereo unspecified)	-3.6%
51	COc1cccc2cc(C(=O)N3CCc4ccccc43)c(=O)oc12	-5.2%
52	Cc1ccc(NC(=O)COS(=O)c2ccc(C)cc2)cc1 (stereo unspecified)	-14.0%
53	COc1ccc(NC2C=CS(=O)(=O)C2)c(OC)c1 (stereo unspecified)	-8.2%
54	CC(=O)c1ccc(NC(=S)NC(NC(=O)c2ccco2)C(Cl)(Cl)Cl)cc1 (stereo unspecified)	-10.0%
55	CC(C)(C)C1CCC(=NNC(=O)c2cc3c(s2)CCCC3)CC1 (stereo unspecified)	-15.8%
56	CCOc1cccc(C(=O)Nc2cnn(Cc3ccccc3)c2)c1	0.3%
57	CC(=O)C1=C(C)NC(SCc2ccc(C#N)cc2)=C(C#N)C1c1ccco1 (stereo unspecified)	-5.4%
58	OC1C(O)C(O)C(O)C(O)C1O (stereo unspecified)	-3.3%
59	Cc1ccc(C(=O)NC(Cc2c[nH]c3ccccc23)C(=O)O)cc1 (stereo unspecified)	-9.0%
60	C=CCSC[C@@H]1Nc2cc(Cl)c(S(N)(=O)=O)cc2S(=O)(=O)N1	-8.7%
61	Cc1cc(C)cc(NS(=O)(=O)c2cnc(Cl)c(Cl)c2)c1	-10.4%
62	CCOC(=S)NC(=O)c1sc2ccccc2c1Cl	-25.2%
63	Cc1ccc2oc(=O)c(/C=C(\O)CC(C)C)nc2c1	-13.4%
64	O=S(=O)(NCc1cccs1)c1cccc2cccnc12	17.7%
65	COc1ccc(OCCSc2nnc(-c3ccccc3)n2N)cc1	-6.6%
66	COc1ccc(C(=O)NCC(=O)OCc2csc(-c3ccccc3)n2)cc1	-10.5%
67	Cc1ccc(CSc2nnc(-c3ccncc3)n2C)cc1	-5.7%
68	O=Cc1ccc(B(O)O)cc1	-5.4%
69	CCN(CC)C(=O)c1c[nH]c2ccc(S(=O)(=O)Nc3cc(C)cc(C)c3)cc2c1=O	-2.6%
70	O=C(O)CN(CC(=O)O)CC(=O)O	-9.3%
71	CCCCC(=O)NCCNC(=O)c1cc(OCC(F)(F)F)ccc1OCC(F)(F)F	-7.3%
72	Cc1ccc2c(c1)c1c3n2CCCNC3CCC1 (stereo unspecified)	-4.3%
73	Cc1nc(N)nc2ccccc12	?
74	COc1cc2cc(CN(CCN3CCCC3)C(=O)Nc3ccccc3Cl)c(=O)[nH]c2cc1OC	?
75	COc1ccccc1NC(=O)CSc1nc2ccccc2c(=O)n1CCNC(C)=O	-5.1%
76	CCCCCC(=O)Nc1ccc(S(=O)(=O)Nc2ccc(Cl)nn2)cc1	-16.2%
77	Clc1ccc(-c2cc3ccccc3nc2N2CCCC2)cc1	?
78	CCOC(=O)c1sc(-c2ccccc2)cc1NC(=O)c1ccc(S(=O)(=O)N(CCOC)CCOC)cc1	?
79	CCCCN(C)C(=O)CCCCn1c(=O)[nH]c2cc(OCC)c(OCC)cc2c1=O	?
80	Cc1ccccc1NC1=C(C(=O)c2ccccc2)N(C)S(=O)(=O)c2ccccc21	-7.5%
81	CCOC(=O)c1c(NC(=O)CSc2nncs2)sc(C)c1C	0.4%
82	COc1cc(C(=O)Nc2ccc3c(c2)OCO3)ccc1-n1cnnn1	-5.7%
83	Cc1cc(Br)ccc1OCc1nc(-c2cccnc2)no1	-11.9%
84	O=C(NNC1CC(=O)N(c2ccccc2)C1=O)c1ccc(COc2ccccc2Cl)o1 (stereo unspecified)	-3.0%
85	Cc1noc(C)c1CSc1nnc(-c2ccccc2)n1Cc1ccco1	-10.9%
86	O=[N+]([O-])c1ccccc1N=Nc1c(O)[nH]c2ccc(S(=O)(=O)O)cc12	3.98µM*
87	Cc1nn(CCOc2ccccc2)c(=O)n1-c1ccc(F)cc1	-12.6%
88	CCc1ccc(C(=O)CN2C(=O)NC(C)(CCc3ccccc3)C2=O)cc1 (stereo unspecified)	-4.3%
89	Cc1cccc(NC(=O)c2cc(NC(=O)C3CC=CCC3C(=O)O)ccc2N2CCOCC2)c1 (stereo unspecified)	-3.4%
90	O=C(Cn1cnc2c(nnn2Cc2ccccc2F)c1=O)NCC1CCCO1 (stereo unspecified)	?

# Carrying on:
entry	mol	HPGD inh
91	Cc1nc2ncnn2c(N2CCCC(C(=O)Nc3ccc4c(c3)CCC4)C2)c1C (stereo unspecified)	28.2µM*
92	O=C(OCc1nnc(-c2ccccc2)o1)c1ccc2ccccc2n1	25.1µM*
93	CN1CCN(CC(=O)Nc2cc(N3CCOCC3)ccc2[N+](=O)[O-])CC1	-18.5%
94	COCCNC(=O)[C@@]1(C)C=C[C@@H](Cc2ccccc2)N1C(=O)c1ccccc1	-6.9%
95	CCN(Cc1ccccc1)C(=O)CSc1nc(C)cc(C)c1C#N	-1.9%
96	CCOC(=O)N1CCN(C(=O)COc2ccc(Cl)cc2C)CC1	5.8%
97	CCn1c(Cc2cccs2)nnc1SCC(=O)c1ccc(C)cc1	15.8µM*
98	O=C(c1ccco1)N1CCC2(CC1)CN(c1ccccn1)C2	?
99	O=C(Nc1ccc2oc(-c3ccccc3)nc2c1)C1CCCO1 (stereo unspecified)	?
100	Cc1ccc(C)c(NC(=O)C2=CCN(S(=O)(=O)c3ccc(F)cc3)CC2)c1	-3.2%
101	O=S(=O)(CCc1ccccc1)c1nnnn1C1CCCCC1	-0.1%
102	CCCc1nnc(NC(=O)Cn2c(=O)oc3ccccc32)s1	28.2µM*
103	CN(C)NC1CCS(=O)(=O)C1 (stereo unspecified)	-14.9%
104	CC12/C(=N/O)C3C4CC5C3/C(=N/O)C1C5C42 (stereo unspecified)	8.0%
105	COc1cc(OC)cc(C(=O)NCCC(=O)NCCc2ccc(OC)c(OC)c2)c1	-1.7%
106	Nc1cccc(OCc2nc(N)nc(N)c2-c2ccc(Cl)cc2)c1	-5.1%
107	C=CCn1c(N)c(C(=O)Nc2cccc(C)c2)c2nc3ccccc3nc21	-23.9%
108	COc1cc(C)c(C#N)c(OC)n1	-6.0%
109	CS(=O)(=O)N1CCC2(CCN(c3ccncc3)CC2)CC1	-1.1%
110	CC(=O)c1c(C)[nH]c(C(=O)NCCN2CCC(C)CC2)c1C	-6.5%
111	CCc1ccc(OCc2ccc(C(=O)NCc3ccccn3)o2)cc1	-18.3%
112	O=C(CC(C(=O)N1CCc2ccccc21)n1ccnc1)N1CCc2ccccc2C1 (stereo unspecified)	-11.0%
113	COc1cccc(Cn2c(=O)c(-c3cccs3)nc3cnc(Nc4ccccc4)nc32)c1	-5.4%
114	C=CCn1c(SCC)nc2sc3c(c2c1=O)CCc1ccccc1-3	-5.4%
115	CC(NC(=O)/C(=C/c1cccc([N+](=O)[O-])c1)NC(=O)c1ccco1)C(=O)O (stereo unspecified)	-13.2%
116	CC1CCc2c(nc3ncnn3c2N2CCN(c3ccccc3F)CC2)C1 (stereo unspecified)	-16.3%
117	COc1cc(C(Nc2ccccn2)c2ccc3ccc(C)nc3c2O)cc(OC)c1O (stereo unspecified)	?
118	Fc1ccc(Cn2nnnc2CN2CCN(C3CCCCC3)CC2)cc1	-8.3%
119	CC1CCCCC1NC(=O)Cn1ncc2ccccc21 (stereo unspecified)	-6.4%
120	O=C(N/C(=C/c1ccc(Br)cc1)c1nc2ccccc2[nH]1)c1ccco1	-22.0%
121	Nc1nc(-c2cccc(NS(=O)(=O)c3ccccc3)c2)cs1	11.2µM*
122	CCc1nnc(NCC(=O)N2CCc3ccccc32)s1	-9.2%
123	CC(=O)c1ccc(-c2cccc(-c3cc(=O)oc4ccc(C(C)(C)C)cc34)c2)cc1	-18.7%
124	CCn1c2ccccc2c2cc(NC(=O)CSc3nnc(-c4ccccc4)o3)ccc21	-13.0%
125	O=C(NCc1ccc2c(c1)OCO2)c1ccc(CSCc2ccc(Cl)cc2)o1	-16.1%
126	COc1ccccc1CC(=N)N1C[C@@H]2C(=O)CCC(c3ccccc3)(c3ccccc3)[C@@H]2C1	2.4%
127	CC(=O)Nc1ccc(NC(C)=O)s1	-10.3%
128	c1ccc(-c2csc(=Nc3cccnc3)n2CC2CCCO2)cc1 (stereo unspecified)	-14.6%
129	COc1ccc(C)cc1NC(=O)C(NCC1CCCO1)c1ccccc1 (stereo unspecified)	-0.9%
130	Cc1cc(C)n(-c2ccc(C(=O)Nc3ccc4c(c3)OCO4)cc2)n1	-20.5%
131	Cc1ccc(OCC(=O)NNC(=O)c2cc3ccccc3o2)cc1	3.7%
132	O=C(CN1CCC(NC(=O)Cc2ccccc2)CC1)Nc1ccccc1Br	-17.2%
133	Cc1ccc(C(=O)N/C(=C/c2cccs2)C(=O)NCCCn2ccnc2)cc1	-6.8%

# Screening results as filed in PubChem.
